# From PubChem
# Calb FLC: C. albicans growth modulation with fluconazole; C. albicans CaCi-2 (fluconazole-resistant clinical isolate) + fluconazole, Alamar Blue growth, 48 h; growth inhibition, % (concentration not given with the values); AID 1979; 300,000 tested, 0.57% active;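 active = most replicates above 75%; inconclusive = exactly half above 75%; inactive = most below 75%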;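 also: all wells also contain fluconazole at 8 µg/ml as a sub-toxic cotreatment; 0% = median of DMSO wells and 100% = median of geldanamycin control wells; wells of about 8 µL received 7.5 nL stock; the first replicate is given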
# Vif TR-FRET: inhibitors of Vif binding to APOBEC3G peptide, primary screen, biochemical, TR-FRET, GST-Vif 1-94, biotin-A3G peptide, dose response retest (AID 1117319); TR-FRET GST-Vif / biotin-A3G peptide binding; higher % means a stronger effect; test concentration not given here; strong numbers were not always called active; inhibition, %; hits with a dose series show IC50 in µM; 260,000 tested, 0.57% active;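 active = above the screen mean plus three standard deviations and confirmed in dose response; inconclusive = results disagree or hit not tested in dose response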;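 also: Vif residues 1-94 fused to GST binding biotinylated APOBEC3G peptide 110-148; 0% = full assay without inhibitor and 100% = GST in place of GST-Vif; retest series ran down from 100 µM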
# Beta apoptosis: beta cell apoptosis inhibition. 300,000 tested, 0.8% active. protection from apoptosis, % (test concentration not listed). INS-1E cytokine-induced death, ATP luminescence, 48 h; percent of positive-control rescue, neutral wells zero;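 active = all replicates at 75% or more, or half of them and the mean; inconclusive = half reach 75% but not the mean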;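 also: 0% = cytokine-treated negative control wells and 100% = positive control rescue; higher means more ATP so stronger rescue from cytokine killing; wells of about 40 µL received 100 nL stock; the first replicate is given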
# RanGTP-Impb inh: disruptors of Ran-importin-beta complex formation – biochemical, FRET, CFP-Ran, YFP-importin-beta, homogeneous, primary screen; cell-free CFP-Ran/YFP-importin-beta FRET ratio; inhibition, % (test concentration not listed); 300,000 tested, 1.1% active;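 active = most replicates above 15%; inconclusive = exactly half above 15%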;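 also: 0% = DMSO wells and 100% = Ran loaded with GDP instead of GTP; wells of about 40 µL received 100 nL stock; the first replicate is given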
# T cruzi inh: blocks replication of Trypanosoma cruzi; 300,000 tested, 1.4% active; AID 1885; inhibition, % (test concentration not listed); T. cruzi beta-gal in NIH3T3, luminescence, 90 h;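 active = mean inhibition across valid replicates above about 55%, limit read from the data; inconclusive = mean below that limit but half or more replicates reach it; inactive = mean below it, under half of replicates reach it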;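 also: signal also drops with host cell toxicity which is not excluded here; 0% = plate median of DMSO wells and 100% = zero luminescence signal; higher percent means less beta-gal luminescence so fewer parasites; stock transfer was 50 nL into about 50 µL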
# LANA-H2A inh: blocks KSHV LANA binding to histone H2A/H2B; Q9QR71; 320,000 tested, 0.6% active; AID 2629; inhibition, % (concentration not given with the values); cell-free LANA-H2A/H2B peptide, fluorescence polarization; in the data active = inhibition mostly above about 10%, no sharp cut-off; inactive = mostly below about 6.7%;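 also: stock transfer was 7.5 nL into about 10 µL; 0% = median of vehicle wells and 100% = median of positive control wells; one replicate is shown; the record names a cut of 25% in any replicate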
# Target sequence (Q9QR71 whole entry, looked up): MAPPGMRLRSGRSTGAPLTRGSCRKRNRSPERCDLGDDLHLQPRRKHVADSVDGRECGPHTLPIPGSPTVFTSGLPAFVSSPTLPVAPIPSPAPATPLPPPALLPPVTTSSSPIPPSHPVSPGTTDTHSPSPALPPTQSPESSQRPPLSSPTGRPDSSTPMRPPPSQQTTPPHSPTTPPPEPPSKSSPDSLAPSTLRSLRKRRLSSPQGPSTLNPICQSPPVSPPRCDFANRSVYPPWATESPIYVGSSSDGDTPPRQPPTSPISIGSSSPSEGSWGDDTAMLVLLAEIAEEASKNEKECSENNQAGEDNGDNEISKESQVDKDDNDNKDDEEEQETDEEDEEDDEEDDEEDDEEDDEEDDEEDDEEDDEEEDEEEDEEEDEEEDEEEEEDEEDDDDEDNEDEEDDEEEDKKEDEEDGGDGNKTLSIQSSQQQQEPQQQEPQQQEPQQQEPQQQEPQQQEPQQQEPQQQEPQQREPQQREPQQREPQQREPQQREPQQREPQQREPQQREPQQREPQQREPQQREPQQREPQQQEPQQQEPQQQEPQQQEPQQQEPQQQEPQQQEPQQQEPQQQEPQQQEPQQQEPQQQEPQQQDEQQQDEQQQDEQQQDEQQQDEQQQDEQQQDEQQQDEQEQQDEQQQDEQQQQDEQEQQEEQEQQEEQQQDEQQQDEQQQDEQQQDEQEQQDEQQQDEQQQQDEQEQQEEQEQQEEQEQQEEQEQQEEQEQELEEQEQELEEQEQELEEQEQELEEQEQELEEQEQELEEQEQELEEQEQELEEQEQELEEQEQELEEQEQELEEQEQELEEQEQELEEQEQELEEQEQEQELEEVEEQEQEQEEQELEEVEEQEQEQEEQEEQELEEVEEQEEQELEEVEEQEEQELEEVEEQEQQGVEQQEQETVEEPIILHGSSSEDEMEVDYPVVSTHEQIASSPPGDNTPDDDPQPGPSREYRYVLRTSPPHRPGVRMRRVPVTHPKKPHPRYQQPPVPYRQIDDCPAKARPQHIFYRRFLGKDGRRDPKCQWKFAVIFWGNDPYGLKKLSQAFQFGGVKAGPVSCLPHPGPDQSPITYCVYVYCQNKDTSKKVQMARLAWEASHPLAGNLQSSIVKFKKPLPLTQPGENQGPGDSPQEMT
# Bfl-1 A1 inh: inhibitors of the anti-apoptotic protein A1, read as caspase activation; MEF A1-2A-BIM cells, Caspase-Glo 3/7 luminescence, 3 h; percent of clofoctol response, vehicle zero; caspase activation, % (test concentration not listed); 330,000 tested, 0.066% active; AID 2462;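 active = over half of replicate activation scores above 10%, or exactly half above 10 with the replicate mean above 10; inconclusive = replicate mean below 10 yet half the replicates above 10; inactive = over half of replicates below 10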;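 also: wells of about 30 µL received 50 nL stock; many hits fall short of the cut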
# MLL AF4-AF9 inh: MLL-AF4/AF9 protein interaction inhibition | P42568 | AlphaScreen, biotin-AF4 peptide binding to FLAG-AF9 | inhibition, % at 10 µM | 350,000 tested, 0.47% active | AID 651704;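 active = every replicate reaching a set inhibition limit, whatever the replicate mean, cut at about 25% in these data; inconclusive = mean inhibition reaches that limit but some replicates miss it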;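 also: 0% = plate neutral control median and 100% = total signal loss; the record names both 10 and 1 µM as test concentration; the first replicate is given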
# Numbers without * were called inactive; ? = inconclusive; · = not tested or not shown; & = joins results of further samples.
SMILES,Calb FLC,Vif TR-FRET,Beta apoptosis,RanGTP-Impb inh,T cruzi inh,LANA-H2A inh,Bfl-1 A1 inh,MLL AF4-AF9 inh
Cc1cc(C(=O)CSc2nnc(C3COc4ccccc4O3)n2C)c(C)n1-c1ccc(F)cc1 (stereo not drawn),9,24%,-31,1.5,24,-1.2,0.0,·
Cc1ccc(Cl)cc1NC(=S)N/N=C/c1cccc2ccccc12,3,·,12,-0.5,59*,0.3,1.0,5.1
C#CCNc1nc(C(C)C)nc2c1nnn2Cc1ccccc1F,-7,5%,25,0.3,12,1.6,-0.3,·
COc1ccc(C2(C)NC(=O)N(CC(=O)NC3(C#N)CCCCC3)C2=O)cc1 (stereo not drawn),0,-1%,1,7.7,-1,-4.0,1.0,-1.4
O=C(NCCC1=CCCCC1)C1CCN(C(=O)c2ccc(Cl)cc2)CC1,0,3%,0,3.3,-9,4.6,0.3,-0.7
COc1ccc(CN(CCC#N)C(=S)NC(=O)c2ccccc2)cc1,11,5%,5,-2.3,-25,-3.5,0.0,·
O=C(CCc1nc2sc3c(c2c(=O)[nH]1)CCCC3)N1CCN(c2ccccc2)CC1,·,-15%,-2,2.4,7,8.7,0.6,-2.6
COC(CNS(=O)(=O)c1cc2c3c(c1)CCN3C(=O)CC2)OC,-1,·,0,0.0,-20,-6.3,0.9,-1.4
COC(=O)c1ccccc1NC(=O)CN(C)S(=O)(=O)c1ccc(OC)c(C)c1,4,-4%&0%,3,-0.8,9,3.3,0.8,·
COc1nc(N(C)C)nc(-n2nnc(C(C)=O)c2C)n1,-5,?,-2,?,9,4.5,0.1,·
Cc1ccc(S(=O)(=O)Nc2cc(C(=O)N3CCOCC3)ccc2N2CCCCC2)cc1,-21,?,-5,?,7,-0.9,1.9,·
O=C(COC(=O)/C=C/c1cccc(F)c1)NC(=O)NC1CCCC1,·,-4%,-4,·,·,1.4,-0.7,-2.5
Cc1nn(CC(=O)NNC(=S)Nc2ccccc2)c(C)c1[N+](=O)[O-],-4,23%,-6,1.9,0,-3.9,0.2,-8.3
Cc1cc(NC(=O)CSc2n[nH]c(=O)[nH]c2=O)ccc1Br,6,10%,-7,-2.6,-7,7.1,0.2,-3.7
COc1ccc(OCCCC(=O)OC(C)C(=O)Nc2cccc(C(C)=O)c2)cc1 (stereo not drawn),-2,·,-8,-0.4,-5,3.6,0.6,-0.2
COc1cc2c(cc1OC)C(c1ccccc1)N(S(C)(=O)=O)CC2 (stereo not drawn),5,18%,-2,-0.5,8,2.0,1.1,-1.2
Cc1nc(NC(=O)c2ccccc2)sc1C1(C)CC(c2ccccc2F)=NO1 (stereo not drawn),10,·,1,?,-3,0.7,-0.1,-14
CCOC(=O)N1CCN(C(=O)CN(C2CCCCC2)S(=O)(=O)c2ccc(C)cc2)CC1,·,-4%,-5,0.5,4,6.7,-0.9,·
O=C(Nc1cc(S(=O)(=O)N2CCCCC2)ccc1N1CCCCC1)c1ccncc1,-1,·,9,0.7,41,-0.7,0.0,2.2
Cc1cc(CNC(=O)CCc2nnc(CCCc3ccccc3)o2)nn1C,?,7%,-1,-1.9,-6,1.3,-0.1,-1.8
COc1cccc(C(=O)NCCSCc2ccccc2Cl)c1,2,2%,-1,-1.5,1,3.4,0.4,-6.4
CCCOc1ccc(/C=N/O)cc1,-5,7%,6,0.4,-14,4.5,-0.1,·
NS(=O)(=O)c1ccc(CCNC(=O)CCC2COc3ccccc3O2)cc1 (stereo not drawn),-3,?,-2,-2.3,-11,0.3,0.7,·
CCOC(=O)CSc1nc2cc(C)cc(C)c2cc1C#N,6,2%,0,6.7,1,1.2,1.6,·
Cc1cc2cc(CNC(=O)NC3CCCCC3)ccc2n1C,-1,2%,·,-2.8,53,·,·,12
O=[N+]([O-])c1ccc(OCC(O)CN2CCN(c3ccccc3F)CC2)cc1 (stereo not drawn),-47,4%,-4,4.6,6,6.5,2.1,-6.1
CC1CCCC(NC(=O)COC(=O)c2ccccc2[N+](=O)[O-])C1C (stereo not drawn),-2,·,-11,-0.6,-9,0.0,0.7,3.0
N/C(Cc1ccc(Cl)cc1)=N\OC(=O)C1CCCCC1,-3,2%,-5,-2.2,3,-1.3,0.1,6.0
O=C(COc1ccccc1)NNC(=O)c1ccc(Cl)cc1,·,-9%,-3,·,·,4.7,0.9,-8.8
COc1ccc(N2CCN(CC(=O)NCc3ccc(Cl)cc3)CC2)cc1,1,·,1,3.6,2,-83,-0.6,0.8
O=C(O)COc1ccc(/C=C2\SC(=Nc3ccccc3)N(c3ccccc3)C2=O)cc1,9,4%,-6,-4.5,-7,0.0,1.7,-0.3
Cc1nn(C)c(C)c1NC(=O)c1cnn2c(C(F)F)cc(-c3ccccc3)nc12,?,-5%,7,7.0,5,-4.8,0.8,·
O=C(c1cc(S(=O)(=O)N2CCOCC2)c(Cl)cc1Cl)N1CCCCC1CO (stereo not drawn),6,-8%,-10,8.8,-1,-5.3,-1.1,-1.1
Cc1ccc(OCCCCn2cnc3ccccc32)cc1,15,9%,11,-1.0,19,1.3,-0.4,1.0
COc1ccc(OCCCC(=O)Nc2nncs2)cc1,7,?,·,-1.9,3,1.9,-0.5,·
CC(C)CCNC(=O)C(c1ccncc1)N(Cc1cccs1)C(=O)Cn1nnc(-c2ccc(F)cc2)n1 (stereo not drawn),-7,10%,33,?,12,3.4,0.7,·
Cc1cc(C2(O)C(=O)Nc3ccccc32)ccc1F (stereo not drawn),-2,9%,3,0.3,4,0.2,-3.0,-0.1
CS(=O)(=O)N(CC(=O)Nc1ccccc1C(=O)N1CCOCC1)c1ccc2c(c1)OCO2,-13,4%,-3,-3.5,-4,5.5,0.8,·
CC(C)(C)[C@@H]1COC(=O)[C@H](Cc2ccc(F)cc2)C/C=C\C[C@@H](CC(=O)NCCO)C(=O)N1,·,·,0,·,·,5.5,-0.7,5.2
CN(C(=O)C(C)(C)C)C1c2c(ccc3ccccc23)OCC1CO (stereo not drawn),-19,0%,-3,-1.6,4,2.9,1.7,-5.3

# Some entries already given, limited to Bfl-1 A1 inh, Beta apoptosis and Calb FLC.
SMILES | Bfl-1 A1 inh | Beta apoptosis | Calb FLC
O=C(c1cc(S(=O)(=O)N2CCOCC2)c(Cl)cc1Cl)N1CCCCC1CO (stereo not drawn) | -1.1 | -10 | 6
Cc1ccc(OCCCCn2cnc3ccccc32)cc1 | -0.4 | 11 | 15

# The list goes on:
SMILES,Calb FLC,Vif TR-FRET,Beta apoptosis,RanGTP-Impb inh,T cruzi inh,LANA-H2A inh,Bfl-1 A1 inh,MLL AF4-AF9 inh
Cc1ccc(-c2nc(NCc3cccnc3)c3ccccc3n2)cc1,57,·,·,-1.9,40,-3.5,-0.5,·
COCCOc1ccc(C(F)(F)F)cc1NC(=O)COC(=O)c1cc([N+](=O)[O-])ccc1N1CCOCC1,-11,·,6,-0.3,27,-1.6,-0.2,2.2
Cc1cc(NC(=O)Nc2cccc(Cl)c2)n(-c2ccccc2)n1,12,9%,3,4.4,-3,1.2,0.6,-3.7
Cc1cc[n+]2c3c(cccc13)CCC2,-18,6%,3,·,-11,-2.5,-1.4,·
Cc1ccc(S(=O)(=O)N2CCN(C(=O)C3CCN(C(=O)c4ccc(F)cc4)CC3)CC2)c(C)c1,12,·,16,5.4,-11,22*,-0.7,0.5
CCn1c(O)c(N=NC(=O)c2cccs2)c2ccccc21,54*,-4%,13,1.4,24,3.4,1.5,3.0
C/C(=N/NC(=O)CNC(=O)Cc1ccccc1)c1ccco1,4,9%,-6,2.1,-8,1.4,?,-1.3
O=C(CNC(=O)c1ccc2c(c1)OCO2)Nc1cccc(Br)c1,·,-8%,-2,·,·,1.3,0.4,1.5
O=C(c1ccco1)N1CCN(c2nc3ccccc3n3nnnc23)CC1,-9,-13%,8,·,·,-1.9,-0.4,·
Nc1nc2n(n1)C(c1cccs1)CC(c1ccc(F)cc1)N2 (stereo not drawn),2,-5%&0%,15,0.6,23,0.3,0.2,·
O=C(NNC(=O)c1ccccc1OCc1ccc(F)cc1)c1ccccc1O,-35,·,87*,2.9,33,-0.6,1.1,-0.3
N/C(=N\O)c1ccc(NC(=O)c2cccs2)cc1,-12,22%,·,14,2,-6.0,-4.1,·
COc1ccc(Nc2ncnc3c2cnn3Cc2ccccc2)cc1,-4,·,-6,-1.8,-8,1.8,1.1,·
CC(=O)c1ccc(OC(=O)c2ccc(-n3nc(C)cc3C)cc2)cc1,-3,-10%,-11,-1.6,-2,2.1,1.4,-1.1
COc1ccc(NC(=O)C2(N(C(=O)Cn3nnnc3N)c3ccc(OC)cc3)CCCCC2)cc1,11,13%,-3,0.3,1,0.2,-1.5,0.2
O=C(NCc1ccc(Cl)cc1)C(=O)c1cn(CC(=O)N2CCOCC2)c2ccccc12,-1,·,-10,-4.3,9,-5.9,1.6,-1.8
CCN(CC(=O)Nc1cc(Cl)ccc1C)C(=O)Cn1c(=O)cnc2ccccc21,-1,-5%,-3,0.5,-4,-8.5,-0.1,0.0
O=C(COc1ccccc1[N+](=O)[O-])N/N=C/c1ccc(O)c([N+](=O)[O-])c1,-12,-12%,8,1.9,-10,5.4,1.2,-0.3
Cn1nccc1-c1cc(Cl)cc(Cl)c1O,-12,·,-2,6.5,-2,0.3,-0.8,-2.8
Cc1ccnc(SCc2cc(=O)c(OC(=O)c3ccc(Cl)c([N+](=O)[O-])c3)co2)n1,-5,·,-6,2.9,4,0.6,0.5,·

# Arranged by molecular weight (ascending): some entries from above
SMILES,Calb FLC,Vif TR-FRET,Beta apoptosis,RanGTP-Impb inh,T cruzi inh,LANA-H2A inh,Bfl-1 A1 inh,MLL AF4-AF9 inh
Cc1cc[n+]2c3c(cccc13)CCC2,-18,6%,3,·,-11,-2.5,-1.4,·
C/C(=N/NC(=O)CNC(=O)Cc1ccccc1)c1ccco1,4,9%,-6,2.1,-8,1.4,?,-1.3
O=C(NCc1ccc(Cl)cc1)C(=O)c1cn(CC(=O)N2CCOCC2)c2ccccc12,-1,·,-10,-4.3,9,-5.9,1.6,-1.8

# Continued.
SMILES,Calb FLC,Vif TR-FRET,Beta apoptosis,RanGTP-Impb inh,T cruzi inh,LANA-H2A inh,Bfl-1 A1 inh,MLL AF4-AF9 inh
CCCCNC(=O)C1CCCN(S(=O)(=O)CC)C1 (stereo not drawn),8,·,-2,-1.6,4,-1.8,0.9,-0.2
C[n+]1c2n(c3ccccc31)N=C(c1ccc(Cl)cc1)CS2,?,-3%,76*,-2.9,37,1.9,0.6,·
O=C(O)c1sc2ncccc2c1OCc1ccccc1,-8,0%,3,-2.1,6,-4.2,0.2,-0.7
Cc1cc(C)cc(-n2ccn(CC(=O)NCCc3ccccc3)c(=O)c2=O)c1,11,·,-5,2.2,-2,3.7,0.2,-2.1
BrC(=C\c1ccccc1)/C=N/n1cnnc1,86*,-8%,·,2.0,50,·,·,9.9
COC(=O)COc1ccc(S(=O)(=O)NCc2ccco2)cc1,-2,11%,-4,2.6,-1,2.6,0.3,·
CCN(CC(=O)NC(C)C)C(=O)c1cc(S(=O)(=O)N2CCCCC2)ccc1N1CCCCC1,·,0%,3,·,·,0.4,2.2,-2.8
